# RGS16-Gao: RGS16-Galphao interaction regulator (human) | O15492+P09471 | bead-based flow cytometry RGS16-Galphao binding, fluorescence; actives lie on both sides | binding response (% of control), % at 10 µM | 220,000 tested, 0.38% active | AID 1441;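 active means below 25% or above 175%, edge rows of some plates excepted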;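 further: Galphao activated by GDP with aluminum fluoride before binding; 100% = wells without compound and 0% = beads without RGS; some results beyond the cut were filed as inactive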
# Target sequence (O15492 whole entry, looked up): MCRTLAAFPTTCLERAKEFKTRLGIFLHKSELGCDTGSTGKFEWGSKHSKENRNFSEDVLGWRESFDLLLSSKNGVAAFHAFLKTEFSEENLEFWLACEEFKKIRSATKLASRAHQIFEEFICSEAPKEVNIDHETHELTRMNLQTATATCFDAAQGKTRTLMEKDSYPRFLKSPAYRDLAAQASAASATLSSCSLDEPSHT
# Target sequence (P09471 whole entry, looked up): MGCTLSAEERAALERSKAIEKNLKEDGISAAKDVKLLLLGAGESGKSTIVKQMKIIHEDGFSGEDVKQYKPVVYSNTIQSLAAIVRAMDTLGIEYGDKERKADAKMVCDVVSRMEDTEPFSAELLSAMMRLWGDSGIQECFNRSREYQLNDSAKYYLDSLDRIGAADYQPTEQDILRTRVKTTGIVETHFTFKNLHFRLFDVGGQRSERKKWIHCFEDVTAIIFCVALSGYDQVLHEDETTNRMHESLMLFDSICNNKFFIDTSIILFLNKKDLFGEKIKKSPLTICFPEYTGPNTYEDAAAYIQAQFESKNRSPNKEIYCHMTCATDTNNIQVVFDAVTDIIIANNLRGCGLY
# HSV replic up: HSV replication enhancement | HSV replication augmentation in cells, fold increase | maximum fold increase | 220,000 tested, 0.005% active | AID 1956;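 active means peak rise of 1.5-fold or more in the series; tested in PC3 cells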;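 further: first round at 10 µM; read as green reporter fluorescence; hits show the peak of a series up to 25 µM; 1 = signal of infected wells without compound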
# INS promoter inh: TRM-6 insulin promoter activity inhibition. TRM-6 cells (human fetal islet line), insulin promoter-eGFP reporter, imaging; reporter expression induced with tamoxifen. inhibition, % at 2 µM. 130,000 tested, 0.9% active;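 active means inhibition above the mean plus 3 SD, with well images judged a real hit on visual review, cut at about 60% in these data, passing the limit was not always enough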
# GALR2 agonist: activates the human galanin receptor 2. AID 803. activation, %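 (tested at 5 µM)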. GALR2-expressing cells, agonist activation read-out. O43603. 140,000 tested, 0.48% active;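 active means above mean plus 3 SD of all compounds, about 5% in these data, not always enough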;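 further: 0% = vehicle buffer wells and 100% = reference agonist at full effect; tested in CHO reporter cells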
# Target sequence (O43603 whole entry, looked up): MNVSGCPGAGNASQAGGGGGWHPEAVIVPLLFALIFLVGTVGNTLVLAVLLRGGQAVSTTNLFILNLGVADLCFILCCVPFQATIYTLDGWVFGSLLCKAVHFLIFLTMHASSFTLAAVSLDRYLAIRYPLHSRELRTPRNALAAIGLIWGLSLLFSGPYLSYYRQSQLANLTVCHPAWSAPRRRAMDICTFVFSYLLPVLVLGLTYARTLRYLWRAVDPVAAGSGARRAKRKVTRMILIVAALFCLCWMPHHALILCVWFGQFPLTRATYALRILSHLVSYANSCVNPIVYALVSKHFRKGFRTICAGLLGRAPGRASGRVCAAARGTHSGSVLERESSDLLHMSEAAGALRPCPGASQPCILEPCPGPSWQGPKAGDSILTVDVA
# PKD1 inh: inhibitors of human PKD1 kinase | Q15139 | PKD1 kinase fluorescence polarization assay | inhibition, %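 (about 10 µM by stock and volumes)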 | 200,000 tested, 0.056% active | AID 797;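 active means inhibition of 50% or more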;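 further: controls were vehicle for no effect and a reference inhibitor for full effect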
# INS promoter inh cell count: further read-out of INS promoter inh, marked with its call; normalized cell count, %; measured here: cell count, toxicity; reference of the scale not given here;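 cells exposed to compound for 48 h; stained nuclei by imaging scaled within each plate; lower means fewer cells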
# HSV replic up primary fold: also measured in HSV replic up; calls as there; fold increase; compound at 10 µM; measured here: primary screen fold increase 10 uM; tested in PC3 cells;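 GFP signal in the first replicate; 1 = infected wells without compound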
# * hit, by the source's call; i = inactive; . = not tested or not shown.
SMILES,RGS16-Gao,HSV replic up,HSV replic up primary fold,INS promoter inh,INS promoter inh cell count,GALR2 agonist,PKD1 inh
C=CCn1c(SCC(=O)N2CCOCC2)nc(O)cc1=O,99,i,1,5,55,-0.4,2
Nn1c(Cc2ccccc2F)nnc1SCC(=O)N1CC(=O)Nc2ccccc21,100,i,0.77,-15,89,-0.6,1
O=C(N=C1c2ccccc2CN1c1ccc(F)c(F)c1)c1cccnc1,100,i,0.9,.,.,.,-2
CCc1ccccc1NC(=O)c1ccc(NCCc2ccccc2)c([N+](=O)[O-])c1,91,i,0.93,27,108,-3.2,-7
COC(=O)c1c(C(=O)OC)c2cccc3cc(-c4ccccc4)c4ccc1c4n32,89,i,1,-49,111,-2.4,-6
Cc1c(C#N)c(=O)oc2ccc3ccccc3c12,98,i,0.9,-25,105,-0.1,0
CCOC(=O)C1=C(O)CSC1=Nc1ccccc1,105,i,1,-57,50,0.7,1
Cc1cc(C)cc(NC(=O)COC(=O)[C@@H](NC(=O)c2ccco2)C(C)C)c1,105,i,0.97,.,.,.,7
CC(=O)Nc1ccc(C(=O)CSc2nnnn2C)cc1,104,i,1,.,.,.,.
CCCn1c(SCc2ccccc2)nc2c1c(=O)[nH]c(=O)n2C,78,i,1.1,.,.,-1.2,1
Cc1cccc(C)c1NC(=O)CCCSc1nnc(-c2ccc(F)cc2)n1-c1ccccc1,97,i,1.1,-43,127,0.9,-5
CCOc1ccccc1CNC(=O)c1cc2oc3ccccc3c2n1C,100,i,0.95,16,102,-2.6,-1

# Full records from above. Order of screens: RGS16-Gao	HSV replic up	HSV replic up primary fold	INS promoter inh	INS promoter inh cell count	GALR2 agonist	PKD1 inh
# Record of Nn1c(Cc2ccccc2F)nnc1SCC(=O)N1CC(=O)Nc2ccccc21 = 100	i	0.77	-15	89	-0.6	1
# Record of CCCn1c(SCc2ccccc2)nc2c1c(=O)[nH]c(=O)n2C = 78	i	1.1	.	.	-1.2	1

# Further records:
SMILES,RGS16-Gao,HSV replic up,HSV replic up primary fold,INS promoter inh,INS promoter inh cell count,GALR2 agonist,PKD1 inh
NC1=NC2(CCN(Cc3ccccc3)CC2)n2c(nc3ccccc32)N1,108,i,0.89,-75,69,-0.3,-12
CCOCCCNC(=O)c1cc(Sc2ccc(F)cc2)nc2ccccc12,106,i,0.88,-69,140,0.9,-15
O=C(NCc1ccc(Cl)cc1)C(=O)NCC(c1cccnc1)N1CCN(c2ccc(F)cc2)CC1 (stereo unspecified),102,i,0.99,-165,75,.,-11
Brc1ccc(-c2csc(N3CCC(c4ccccc4)C3)n2)cc1 (stereo unspecified),99,i,1,-2,122,-0.1,3
CN(CCc1ccccn1)C(=O)CCc1nnc(CCCc2ccccc2)o1,105,i,0.98,.,.,.,-4
COc1ccc(N2CCN(CCCNC(=O)C3(S(=O)(=O)c4ccc(Cl)cc4)CC3)CC2)cc1,99,.,.,-3,120,0.1,-10
Cc1c(C(=O)O)cccc1-n1c(C)cc(/C=N/Nc2ccc([N+](=O)[O-])cn2)c1C,82,i,1.3,.,.,.,.
COc1cccc(C(=O)NCCN2C(=O)S/C(=C/c3cccs3)C2=O)c1OC,105,i,0.77,.,.,.,2
Cc1nn(Cc2ccccc2)c(C)c1C(=O)Nc1ccc(N2CCOCC2)cc1,85,i,0.96,.,.,-1.8,-10
O=C(NC(Cc1ccc2c(c1)OCO2)C(=O)NC(Cc1ccccc1)C(=O)O)c1ccccc1 (stereo unspecified),103,.,.,67,92,-2.2,2
COc1ccc(-c2n(Cc3ccccc3)c3ccccc3[n+]2Cc2ccccc2)cc1,97,i,0.9,-100,56,.,-6
Nc1c(C(=O)N/N=C/c2cccnc2)oc2nc(-c3ccccc3)cc(-c3ccco3)c12,113,i,1.2,.,.,.,.
Cc1ccc2cc(CCNS(=O)(=O)c3ccc(F)cc3)c(=O)[nH]c2c1C,50,.,.,.,.,.,-4
Cc1ccc(-c2nnn(Cc3nc(N)nc(N4CCOCC4)n3)n2)cc1,99,i,0.93,.,.,-1.1,-2
CC(C)(C)c1ccc(SCCc2cccnc2)cc1,98,i,1,.,.,.,.
Cc1cccc(NC(=O)/C(C#N)=C\c2ccc(C(=O)O)cc2)c1,102,i,0.87,-53,80,.,1
COc1ccccc1N1CC(C)(C)C(=O)N(C(=O)c2ccc(C)cc2)C1=S,95,i,0.91,.,.,.,.
C=CCn1c(C)nnc1SCC(=O)c1[nH]c(C)c(C(C)=O)c1C,100,i,1.1,.,.,.,-3
O=C(COC(=O)C1=COCCO1)Nc1cccc(Oc2ccccc2)c1,98,i,0.83,-43,74,-3.3,-6
CCc1ccc(NC(=S)N2CCCCCCC2)cc1,104,.,.,79*,41*,.,-8
CC1=C(C#N)C(NC(=O)c2ccc(C)cc2)(C(F)(F)F)C(=O)N1 (stereo unspecified),102,.,.,-3,98,-2.3,-5
c1cnc(NC2C3CC4CC(C3)CC2C4)nc1 (stereo unspecified),62,i,0.9,33,74,-0.8,-7
COc1ccc(-c2noc(CCC(=O)NCc3cc(Br)ccc3OC)n2)cc1,101,i,0.93,-17,115,-0.9,-2
Cc1cc(C)c(S(=O)(=O)NCc2cn3c(C)csc3n2)cc1C,102,i,0.83,.,.,-2.8,-1
Cn1cccc1C(=O)NC(=O)COC(=O)c1cc(Cl)ccc1[N+](=O)[O-],101,i,1,.,.,.,.
Cc1ccccc1Cn1ccc(NC(=O)c2cc3nc(-c4ccco4)cc(C(F)(F)F)n3n2)n1,99,i,0.98,.,.,0.3,-8
Cc1ccc(-c2nc3c(=O)n(-c4ccccc4)c4c(c(=O)n(C)c(=O)n4C)c3o2)cc1,96,i,1,.,.,.,.
Cc1cc(C)nc(SC(C(=O)O)c2ccccc2)n1 (stereo unspecified),112,i,0.96,11,98,-1.3,2
O=c1cc(CSc2nnnn2-c2ccccc2)nc2scc(-c3ccccc3)n12,96,i,0.92,34,83,2.4,-5
COC(=O)C(Cc1c[nH]c2ccccc12)NC(=O)CNC(C)=O (stereo unspecified),101,i,1,14,125,-0.8,-8
Cc1ccccc1NC(=O)C[n+]1cc(-c2ccccc2)n2c1CCC2,96,i,1.1,.,.,.,.
O/N=C1\CCCc2nnc3c(c21)CCCC3,104,i,1,.,.,-2.2,-3
Cc1cc(C)c2oc(C(=O)Nc3ccc(S(=O)(=O)Nc4nccs4)cc3)cc(=O)c2c1,97,i,0.86,.,.,.,.
COc1ccc(C(=O)CSc2nc3c(c(=O)n(C)c(=O)n3C)n2C)cc1,105,i,1.1,24,92,.,1
COCCn1c(=O)[nH]c(=O)c2cc(C(=O)c3cc(OC)ccc3O)cnc21,99,i,0.92,.,.,0.0,2
O=[N+]([O-])c1ccc(O)c(C=Nc2ccc3nc(-c4ccccc4)[nH]c3c2)c1,108,i,1.2,27,92,-1.1,0
COc1ccc(C2CC(c3cccs3)=NN2C(=O)COC(=O)C2CCCCC2)cc1OC (stereo unspecified),97,i,0.89,.,.,.,3
COCC(=O)N1CCC(n2nnc3cc(F)ccc32)CC1,101,i,1,3,129,-1.1,4
COC(=O)c1cc(NS(=O)(=O)c2ccc(N3CCC(C)CC3)c([N+](=O)[O-])c2)cc(C(=O)OC)c1,113,i,0.91,.,.,-1.7,-6
CS(=O)(=O)NCc1ccc(C(=O)NC2CCCCC2)cc1,108,i,1,39,126,1.2,-1
Cc1cc(N=Cc2c(O)ccc3cc(Br)ccc23)no1,131,i,0.96,-14,79,0.1,0
CCC(C(=O)O)n1nnc(-c2ccc(-c3ccc(OC)cc3)cc2)n1 (stereo unspecified),93,i,0.92,.,.,-1.5,-6
COCCCNC(=O)[C@H](CSCc1ccccc1)N1Cc2ccccc2C1=O,101,i,0.94,.,.,.,.
COc1cccc(OCC(=O)NN=C2c3ccccc3-c3ccccc32)c1,103,i,0.9,-18,84,-2.8,-3
COc1cc([N+](=O)[O-])ccc1NC(=O)COC(=O)c1n[nH]c2ccccc12,102,i,0.81,0,96,-1.1,-11
NCCCC[C@@H]1NC(=O)c2cc([N+](=O)[O-])cc(F)c2NCCCC[C@@H](C(N)=O)NC(=O)[C@H](CCC(N)=O)NC1=O,91,i,0.95,-36,93,-1.5,0
CCC(C)[C@H](NC(=O)NCc1ccccn1)C(=O)OC (stereo partly specified),102,i,0.9,-3,66,-1.8,-5
COC(=O)c1cc(OC)c(OC)cc1N=CC1=C(O)CC(C)(C)CC1=O,97,i,1,21,79,-3.2,10
O=C(N/N=C/C=C\c1ccccc1[N+](=O)[O-])c1ccncc1,93,i,0.92,.,.,.,2
CC(C)(C)C(=O)CNCC(=O)C(C)(C)C,109,i,0.95,40,146,.,12
N=c1c2c3c(sc2ncn1N)CCCC3,108,i,0.9,.,.,.,-6
O=S(=O)(NCc1ccccn1)c1cc(OCC(F)(F)F)ccc1OCC(F)(F)F,106,i,0.98,.,.,.,.
Cc1cc(=O)oc(C)c1C(=O)N1CCN(Cc2ccc3c(c2)OCO3)CC1,83,i,0.92,.,.,-2.3,3
O=C(Nc1cccc(Cl)c1)c1ccc(Cn2cc(Cl)cn2)cc1,103,i,0.99,.,.,1.3,8
CCS(=O)(=O)N1Cc2ccccc2CC1C(=O)Nc1ccc(OC)cc1 (stereo unspecified),103,i,1.1,18,96,.,-9
O=Cc1s/c(=N\S(=O)(=O)c2ccccc2)n(CCCCl)c1Cl,100,i,1.1,.,.,.,-1
Clc1ncn(C23CC4CC(CC(C4)C2)C3)n1,176,i,0.89,13,145,-1.4,-5
COC(=O)Cc1[nH]n(-c2nc3ccccc3s2)c(=O)c1C(C)=Nc1ccc(OC)cc1,95,i,0.94,.,.,.,.
COc1ccc(OC)c(C2C(C(=O)c3cccs3)=C(O)C(=O)N2c2cc(C)on2)c1 (stereo unspecified),92,i,0.96,8,113,0.8,-7
O=C(Nc1ccccc1Cl)c1ccc(COc2ccc3c(c2)CCC3)cc1,101,i,0.95,.,.,-0.8,5
# Remaining list, next part:
SMILES,RGS16-Gao,HSV replic up,HSV replic up primary fold,INS promoter inh,INS promoter inh cell count,GALR2 agonist,PKD1 inh
O=C(CN1CCN(C/C=C/c2ccccc2)CC1)Nc1ccccc1C(=O)NC1CC1,101,i,1.1,.,.,.,.
CC(C)C(=O)Nc1nc2cc3c(cc2s1)OCCO3,96,i,1.1,.,.,.,.
COc1cccc(CNC(=O)N[C@@H](CC(C)C)C(=O)O)c1,105,i,1.1,-8,102,-0.3,-1
Nc1nc(SCc2ccccc2)n[nH]1,100,i,1,.,.,.,.
O=C(Cc1ccccc1F)c1ccc(O)cc1O,101,i,1.1,-18,106,.,-3
CNc1nc(OC)nc(N(C#N)CN2C(=O)c3ccccc3S2(=O)=O)n1,102,i,0.81,.,.,.,-9
COc1ccc(C(=O)O/N=C2\CCS(=O)(=O)c3sccc32)cc1,101,i,1.1,.,.,.,-2
Cc1[nH]c(=O)[nH]c(=O)c1S(=O)(=O)N1CCC(C(=O)NC(C)c2ccccc2)CC1 (stereo unspecified),102,i,0.88,6,105,-1.1,-14

# Among those listed so far, 12 contain fluorine:
SMILES,RGS16-Gao,HSV replic up,HSV replic up primary fold,INS promoter inh,INS promoter inh cell count,GALR2 agonist,PKD1 inh
Nn1c(Cc2ccccc2F)nnc1SCC(=O)N1CC(=O)Nc2ccccc21,100,i,0.77,-15,89,-0.6,1
O=C(N=C1c2ccccc2CN1c1ccc(F)c(F)c1)c1cccnc1,100,i,0.9,.,.,.,-2
Cc1cccc(C)c1NC(=O)CCCSc1nnc(-c2ccc(F)cc2)n1-c1ccccc1,97,i,1.1,-43,127,0.9,-5
CCOCCCNC(=O)c1cc(Sc2ccc(F)cc2)nc2ccccc12,106,i,0.88,-69,140,0.9,-15
O=C(NCc1ccc(Cl)cc1)C(=O)NCC(c1cccnc1)N1CCN(c2ccc(F)cc2)CC1 (stereo unspecified),102,i,0.99,-165,75,.,-11
Cc1ccc2cc(CCNS(=O)(=O)c3ccc(F)cc3)c(=O)[nH]c2c1C,50,.,.,.,.,.,-4
CC1=C(C#N)C(NC(=O)c2ccc(C)cc2)(C(F)(F)F)C(=O)N1 (stereo unspecified),102,.,.,-3,98,-2.3,-5
Cc1ccccc1Cn1ccc(NC(=O)c2cc3nc(-c4ccco4)cc(C(F)(F)F)n3n2)n1,99,i,0.98,.,.,0.3,-8
COCC(=O)N1CCC(n2nnc3cc(F)ccc32)CC1,101,i,1,3,129,-1.1,4
NCCCC[C@@H]1NC(=O)c2cc([N+](=O)[O-])cc(F)c2NCCCC[C@@H](C(N)=O)NC(=O)[C@H](CCC(N)=O)NC1=O,91,i,0.95,-36,93,-1.5,0
O=S(=O)(NCc1ccccn1)c1cc(OCC(F)(F)F)ccc1OCC(F)(F)F,106,i,0.98,.,.,.,.
O=C(Cc1ccccc1F)c1ccc(O)cc1O,101,i,1.1,-18,106,.,-3
